Screening data from PubChem.
PMP22 txn prim – modulates PMP22 transcription in S16 Schwann cells; S16 Pmp22-F2sN Schwann cells (luciferase reporters placed in the Pmp22 gene), FLuc/NLuc coincidence luminescence, 24 h; Potency, µM (highest dose often 57.5 µM), for inactives: at the highest dose activity change, negative = inhibition, usual class: inhibitors; 2% of 43,000 active; AID 1508649; active = clear falling dose curves in both reporters; inconclusive = both reporters move, but less clearly or upward; inactive = either reporter flat; the % is the NLuc reporter signal; also: % is scaled to controls: 0 for no effect and ±100 for the full control effect; some results filed as inactive show a strong effect at the top dose
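Luminescent read-out of sequential FLuc and NLuc signals from a reporter embedded in the Pmp22 3' UTR of S16 Schwann cells, taken after 24 h compound exposure at 37C; compounds reducing both signals score as inhibitors of expression.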
HTT promoter inh – inhibitors of huntingtin promoter activity; 0.93% of 48,000 active; Potency, µM (highest dose often 57.5 µM), inactives show top-dose activity change, negative = inhibition, usual class: inhibitors; HEK293 HTT promoter firefly luciferase reporter (activity 0% = vehicle and -100% = no light), 24 h; active = well fitted inhibition curve with a large enough effect; inconclusive = small, poorly fitted or top-dose-only effect; inactive = no such curve, though single readings can be large or run the other way; also: nearly all actives have a fitted effect of over 50% in size
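HEK293 cells carrying firefly luciferase reporters were seeded at 2,500 per well in Opti-MEM and cultured for 24 h. They were then treated with compounds at up to 57.5 uM final for 24 h at 37 degrees C before Dual-Glo luminescence readout.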
* marks the source's active call; other numbers are inactive results; ? = inconclusive; · = no result given; & = joins results of further samples; [ ] = dose if it differs, or a comment. Potency is read from the fitted curve at half-maximal effect.

| molecule | PMP22 txn prim | HTT promoter inh |
| --- | --- | --- |
| CCc1ccc(Cn2nnc(C(=O)Nc3ccc(C)cc3)c2N)cc1 | -22% | 19% |
| COc1ccccc1CNC(=O)CCc1c(C)nc2c(c(C)nn2-c2ccc(C)c(C)c2)c1C | 16% | -78% |
| Cc1cccc(Cc2c(C)nc3nc(SCC(=O)NCc4ccccc4)nn3c2C)c1 | ? | -32% |
| Cc1cccc(N2CCN(C(c3ccccc3)c3nnc(-c4ccccc4F)o3)CC2)c1C (stereo not given) | -15% | ? |
| COc1ccc2occ(CC(=O)Nc3ccc(S(=O)(=O)Nc4nc(C)cc(C)n4)cc3)c2c1 | -5% | -11% |
| Cc1ccc(CCNC(=O)C2CCCN(S(=O)(=O)c3ccc4c(c3)oc(=O)n4C)C2)cc1 (stereo not given) | -12% | -8% |
| CCc1ccc(CNC(=O)c2ccc3c(c2)nc2n3CCC(C)C2)cc1 (stereo not given) | 0% | -2% |
| CCOc1ccccc1NC(=O)N1CCN(C)c2ncccc21 | ? | -14% |
| COc1cc(C(=O)CC2(O)C(=O)N(Cc3ccccc3Cl)c3ccccc32)cc(OC)c1OC (stereo not given) | 11µM* | ? |
| CCc1ccc(NC(=O)CCNC(=O)Cn2cnc3ccccc3c2=O)cc1 | 4% | -7%[11.5 µM] |
| COc1ccc(C)cc1NC(=O)c1oc2ccc(S(=O)(=O)N3CCOCC3)cc2c1C | ? | -11% |
| CN1C(=O)C2(SCC(=O)N2c2ccc(Cl)cc2)c2ccccc21 (stereo not given) | -13% | -16% |
| CCN(CC)S(=O)(=O)c1ccc2c(c1)N(CC(=O)Nc1c(C)cccc1C)C(=O)CO2 | -9% | -12% |
| CN1C(=O)C2CCCCN2c2ccc(C(=O)NCc3ccccc3Br)cc21 (stereo not given) | ? | 0% |
| Cc1cc(=O)n2nc(N3CCC(C(=O)NCc4ccc(Cl)cc4)CC3)sc2n1 | -35% | -13% |

Six entries from above, with two lines to a compound:
Second line of a record: PMP22 txn prim	HTT promoter inh
Cc1cccc(Cc2c(C)nc3nc(SCC(=O)NCc4ccccc4)nn3c2C)c1
  ?	-32%
Cc1cccc(N2CCN(C(c3ccccc3)c3nnc(-c4ccccc4F)o3)CC2)c1C (stereo not given)
  -15%	?
COc1ccc2occ(CC(=O)Nc3ccc(S(=O)(=O)Nc4nc(C)cc(C)n4)cc3)c2c1
  -5%	-11%
Cc1ccc(CCNC(=O)C2CCCN(S(=O)(=O)c3ccc4c(c3)oc(=O)n4C)C2)cc1 (stereo not given)
  -12%	-8%
CCc1ccc(CNC(=O)c2ccc3c(c2)nc2n3CCC(C)C2)cc1 (stereo not given)
  0%	-2%
CCOc1ccccc1NC(=O)N1CCN(C)c2ncccc21
  ?	-14%

The listing continues.
| molecule | PMP22 txn prim | HTT promoter inh |
| --- | --- | --- |
| CNNCc1ccc(C(=O)NC(C)C)cc1 | · | 17%&9% |
| COc1cc(NC(=O)Cn2nc(-c3ccc(C)c(C)c3)ccc2=O)cc(OC)c1 | 19% | ? |
| CC(=O)Nc1cccc(NC(=O)CSc2cn(CC(=O)N(C(C)C)C(C)C)c3ccccc23)c1 | ? | -9% |
| CCc1ccc(CNC(=O)c2cc(-c3ccc(Cl)s3)nc3ccccc23)cc1 | -35% | 1% |
| Cc1cc2c(cc1NS(=O)(=O)c1cccc(C#N)c1)n(C)c(=O)c(=O)n2C | -4% | -8% |
| COc1ccc(C(=O)Nc2cc(-c3nc4ccccc4s3)ccc2OC)cc1 | ? | 7% |
| COc1cc(-c2nc3cccc(C)n3c2Nc2ccc3c(c2)OCCO3)ccc1O | ? | 2% |
| COc1cc(C(=O)NCCc2csc(-c3ccc(Cl)cc3)n2)cc(OC)c1OC | ? | ? |
| Cn1ncc2c(N3CCN(c4ccccc4F)CC3)ncnc21 | -19% | -25% |
| COc1ccc(Cn2ccnc2SCC(=O)NCc2ccccc2)cc1 | -26% | -34% |
| COc1ccccc1-c1ncnn1-c1sc2c(c1C#N)CCCCC2 | 2% | 4% |
| Cc1ccc(C(=O)COC(=O)c2cc(-c3cccs3)nc3ccccc23)cc1 | -13% | 19% |
| C=CCN1CCc2nc(N)sc2CC1 | · | 9% |
| CC(=O)c1cccc(NC(=O)c2sc(-n3nc(C)c(Cc4ccc5c(c4)OCO5)c3C)nc2C)c1 | ? | -20% |
| O=C(Oc1ccc(F)cc1)c1nc(SCc2ccc(F)cc2)ncc1Cl | -37% | 1% |
| CCOC(=O)N1CCN(C(=O)Cn2ncc3c4ccccc4n(Cc4ccc(F)cc4)c3c2=O)CC1 | -15% | ? |
| COc1ccccc1OCCCn1c(C2CC(=O)N(c3ccccc3Cl)C2)nc2ccccc21 (stereo not given) | ? | -12% |
| CCc1ccc(NC(=O)CSc2ccc(-c3cccs3)nn2)cc1 | 8% | ? |
| Cc1ccc(-c2cc(C(=O)NCc3ccccc3)c3c(-c4ccc(C)cc4)[nH]nc3n2)cc1 | ? | -15% |
| COc1ccc(N2CCN(C(=O)c3cc4c(=O)oc5ccc(C)cc5c4s3)CC2)cc1 | -44% | -9% |
| CN1CCN(C(CNC(=O)C(=O)Nc2ccc(Cl)cc2)c2cccnc2)CC1 (stereo not given) | -9% | -1% |
| CCOC(=O)c1ccc2c(c1)N(Cc1cccc(OC)c1)C(=O)c1ccccc1S2(=O)=O | -10% | -17% |
| CCCCOc1ccc(C2c3c(oc4ccccc4c3=O)C(=O)N2c2nc(C)c(C(=O)OCC)s2)cc1OC (stereo not given) | -3% | -11% |
| Cc1ccc(NC(=O)COCc2cc(-c3cccs3)on2)cc1Cl | -19% | -8% |
| Cc1cc(C)cc(Nc2cc(C(=O)NCCCN(C)C3CCCCC3)c3ccccc3n2)c1 | 8.9µM* | ? |
| O=C(Nc1ccc(OC(F)(F)F)cc1)c1cc(-c2ccc(Cl)cc2)on1 | -13% | -1% |
| Cc1ccc(Cn2ccn(Cc3cccc(C(F)(F)F)c3)c(=O)c2=O)cc1 | 9% | -26% |
| CCOc1ccccc1NC(=O)C1CCN(S(=O)(=O)c2c(C)noc2/C=C/c2ccco2)CC1 | 9.5µM* | -16% |
| CCOC(=O)c1ccc(NC(=O)c2cc3sccc3n2Cc2ccc(Cl)cc2)cc1 | ? | ? |
| Cc1cccc(N2CCN(C(=O)c3cnc(N4CCCC4)nc3C)CC2)c1C | ? | -27% |
| CCOC(=O)c1c(-c2ccc(OC)cc2)oc2ccc(OCc3ccc(F)cc3F)cc12 | -4% | -9%[11.5 µM] |
| CC1CCCN(c2ncnc3c2nnn3C)C1 (stereo not given) | -12% | 6% |
| CCC(C)NC(=O)c1sc2ncccc2c1-n1c(C)ccc1C (stereo not given) | ? | ? |
| Cc1ccc2c(c1)c(N1CCCC1=O)c(C(=O)Nc1ccc(F)cc1F)n2C | -17% | -32% |
| Cc1cnc(C(=O)NCCc2ccc(S(=O)(=O)NC(=O)NC3CCCCC3)cc2)cn1 | · | -6%&-18% |
| COc1ccc(-c2nnc(SC(C)C(=O)O)o2)cc1 (stereo not given) | 4% | ? |
| O=C(Cn1nc(N2CCN(c3ccccc3)CC2)ccc1=O)NCc1ccccc1F | 10% | 0% |
| COc1cc(Nc2nc(SCc3ccc(Cl)cc3)nc3ccccc23)cc(OC)c1 | ? | -24% |
| CC(=O)c1ccc(N2CCN(C(=O)CCCCn3c(=O)[nH]c4ccccc4c3=O)CC2)cc1 | ? | -16% |
| CCC1CCCCN1CCCNC(=O)c1c(C)oc2ncn(CC(C)C)c(=O)c12 (stereo not given) | -4% | -13% |
| Cc1ccc2occ(CC(=O)Nc3c(C(=O)Nc4ccc(Cl)cc4)oc4ccccc34)c2c1 | 8% | 7% |
| O=C(Cc1ccc(Cl)cc1)Nc1ccc2nn(-c3ccccc3)nc2c1 | ? | 14% |
| CC(C)OCCCNc1sc(S(=O)(=O)c2ccccc2)nc1S(=O)(=O)c1ccc(Cl)cc1 | ? | ? |
| CCOC(=O)c1ccc(NC(=O)Cc2ccc(-n3c(CC)nc4cccnc43)cc2)cc1 | ? | -13% |
| COc1ccc(NC(=O)Cn2nc(C)c3nn(-c4ccc(Cl)cc4)c(C)c3c2=O)cc1 | -12% | -27% |
| CCC(C)Sc1c(C(C)C)cnc2c1c(=O)n(C)c(=O)n2C (stereo not given) | -21% | ? |
| CC(=O)c1ccc(NC(=O)c2ccc(-c3nc(CSc4ccc(C)cc4)c(C)o3)cc2)cc1 | ? | ? |
| Cc1cc(C(=O)NOCCO)c(Nc2ccc(I)cc2F)n(C)c1=O | · | -12% |
| CCN1CCN(C(c2ccccc2)c2c(O)cc(C)n(Cc3ccco3)c2=O)CC1 (stereo not given) | -2% | -12% |
| CCC1CN(C(=O)N2CCC(C(=O)NCc3cccc(F)c3)CC2)c2cc(C)ccc2O1 (stereo not given) | -30% | ? |
| COc1ccc(-n2c(=O)c3c(C)c(C)sc3n(Cc3ccc(F)cc3)c2=O)c(OC)c1 | 6% | ? |
| CC1(C)C(=O)N(CC(=O)Nc2cccc(F)c2)c2ccc(S(=O)(=O)N3CCCCC3)cc21 | -10% | ? |
| Cc1ccc(Nc2c3c(nc4nncn24)CCC3)cc1C | ? | -17% |
| COc1ccc(Br)cc1C(=O)Nc1ccc(-c2nc3ncccc3o2)cc1C | 2% | -9% |
| CCN(CC)C(=S)SSC(=S)N(CC)CC | · | ? |
| CC(=O)Nc1ccc(Nc2ncnc3c2c(-c2ccccc2)cn3-c2ccc(C)c(Cl)c2)cc1 | ? | ? |
| COc1ccc(CNC(=O)CCC(=O)N2CC3CCCN3c3ccccc32)c(OC)c1 (stereo not given) | ? | -17% |
| Cc1cccc(-n2c(=O)c3c4c(sc3n3c(C)nnc23)CCCC4)c1 | -5% | -12% |
| CCC(NC(=O)Nc1cc(Cl)ccc1OC)c1c(-n2cccc2)sc2c1CCN(C)C2 (stereo not given) | ? | -24% |
| Cc1ccc2[nH]cc(S(=O)(=O)c3ccc(C)c(C)c3)c(=O)c2c1 | ? | -18% |

Reformatted: results already given.
The line under a structure holds: PMP22 txn prim, HTT promoter inh
Cc1cc(C(=O)NOCCO)c(Nc2ccc(I)cc2F)n(C)c1=O
→ ·, -12%
CCC(NC(=O)Nc1cc(Cl)ccc1OC)c1c(-n2cccc2)sc2c1CCN(C)C2 (stereo not given)
→ ?, -24%
CC1(C)C(=O)N(CC(=O)Nc2cccc(F)c2)c2ccc(S(=O)(=O)N3CCCCC3)cc21
→ -10%, ?
CCC1CN(C(=O)N2CCC(C(=O)NCc3cccc(F)c3)CC2)c2cc(C)ccc2O1 (stereo not given)
→ -30%, ?
Cc1ccc(Nc2c3c(nc4nncn24)CCC3)cc1C
→ ?, -17%

Continued.
| molecule | PMP22 txn prim | HTT promoter inh |
| --- | --- | --- |
| Brc1ccc(CN2CCc3nc(N4CCN(c5ncccn5)CC4)ncc3C2)cc1 | -32% | ? |
| Cc1ccc(C)c(N2CCN(C(=O)CN3C(=O)CSc4c3c(C)nn4-c3ccccc3)CC2)c1 | -12% | -15% |
| COc1cccc(-c2cc(C(F)(F)F)nc(-n3nc(C)c(Br)c3C)n2)c1 | ? | -15% |
| COc1ccc(NC(=O)[C@H](Cc2ccccc2)N2Cc3ccccc3C2=O)cc1OC | 9% | -13% |
| CC(=O)Nc1ccc(NS(=O)(=O)c2ccc3c(c2)CC(C)N3C(=O)C2CCC2)cc1 (stereo not given) | ? | ? |
| COc1ccc(NC(=O)c2c(NCc3cccs3)sc3c2CCCCC3)cc1 | ? | 8% |
| CCOc1ccc(NC(=O)CSc2c3c(nc4ccccc24)CCCC3)cc1 | ? | -8% |
| CCc1ccccc1NC(=O)C(=O)NCC(c1cccnc1)N1CCN(c2ccccc2F)CC1 (stereo not given) | ? | ? |
| CCc1cccc(NC(=O)C2CCN(S(=O)(=O)c3ccc(Br)s3)CC2)c1 | -14% | ? |
| COc1cccc(-n2cc(C(=O)NCCc3ccc(C)cc3)c3ccccc3c2=O)c1 | -25% | -17% |
| COc1ccc(/C=C/C(=O)Nc2ccc(C)cc2)cc1 | -6% | -13%[11.5 µM] |
| CCCc1nc2ccccc2n2c(-c3cccc(C)c3)c3c(=O)n(C)c(=O)n(C)c3c12 | -27% | 7%[11.5 µM] |
| CCC1CN(C(=O)Nc2cccc3c2CCCC3)c2cc(C)ccc2O1 (stereo not given) | -22% | -25% |
| CCc1cccc(NS(=O)(=O)c2cc(-c3cnc(C)o3)ccc2OC)c1 | ? | ? |
| CC(=O)c1ccc(N2CCN(C(=O)C3CCN(S(=O)(=O)c4cccc5nonc45)CC3)CC2)cc1 | 5% | -12% |
| COc1ccc(-c2nn(CC(=O)Nc3ccccc3F)c3c2cnc2ccc(F)cc23)cc1 | -30% | 40%[activator] |
| COc1ccc(-c2c3c(=O)n(C)c(=O)n(C)c3cn2-c2cccc(N)c2)cc1 | -30% | -9% |
| COc1ccccc1-c1cccc(-c2c(O)c3cc(C#N)c(Cl)cc3[nH]c2=O)c1 | · | -15%[116 µM] |
| CC(C)CCn1c(=O)c2cccnc2n(CC(=O)Nc2ccc(F)cc2)c1=O | 0% | -21% |
| COc1ccc(N2CCN(c3ncnc4onc(-c5ccc(F)cc5)c34)CC2)cc1 | -20% | ? |
| Cc1c(C(=O)NCc2ccc(F)cc2)sc2nc(-c3ccc(F)cc3)cn12 | -12% | ? |
